eIF4H inh = inhibitors of RNA binding by human eIF4H; Q15056; eIF4H fluorescence polarization binding assay; inhibition, % at 35 µM; hit rate 0.94% among 290,000; AID 2012;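 active = 50% or more with normal probe brightness, or confirmed in later tests; about a fifth of its hits are not listed in these tables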;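 note: calls also rest on retests at 20 µM and on dose response follow-up; 0% = protein and probe with vehicle and 100% = probe without protein; strong numbers were not always called active; many hits fall short of the cut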
HIV Env fusion = HIV envelope-mediated fusion inhibition | HeLa-JRFL Env/CEM21 cell fusion, luciferase | inhibition, % at 12.3 µM | hit rate 1.1% among 360,000 | AID 651610;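 active = mean replicate inhibition score of at least 50 and every replicate individually at or above 50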;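 note: 0% = plate neutral controls and 100% = maraviroc near 300 nM; one replicate is shown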
MT1-MMP act inh = inhibitors of human MT1-MMP activation | P50281 | hit rate 0.061% among 360,000 | GFP/RFP ratio change, % at 20 µM | HT1080 RFP-PRO-GFP cells, GFP/RFP ratio fluorescence, overnight; percent of plate control window, DMSO zero;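 active = GFP/RFP ratio change of at least 30% with cell ATP level not reduced by more than half and red fluorescence within 50% of control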; note: strong numbers were not always called active
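Assay system – RFP-PRO-GFP reporter HT1080 cells · Compound dosing – single dose of 20 µM compound, 1% DMSO final · Incubation – overnight compound exposure at 37 °C · Measure – GFP/RFP fluorescence ratio · Benchmarks – DMSO wells and RFP-L50D-GFP cells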
CSC inhib = cancer stem cell inhibition | hit rate 1.1% among 300,000 | cancer stem cell-like cells viability, luminescence | AID 2717 | inhibition, % at 7.5 µM;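 active = mean at 75% or more and at least half the replicates too; tested in HMLE shEcad cells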;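 note: 0% = median of negative and 100% = median of positive control wells; the first replicate is given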
Rce1 inhib = inhibitors of yeast Ras-converting enzyme; Q03530; hit rate 0.27% among 290,000; AID 2563; yeast membranes, quenched prenylated peptide cleavage fluorescence; calls only;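 active = fall in fluorescence gain of 50% or more versus controls, with final raw signal at or below 3038400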;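 note: plate controls were neutral control wells for no effect and wells lacking membranes for full effect; tested at 10 µM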
Target sequence (Q03530 whole entry, looked up): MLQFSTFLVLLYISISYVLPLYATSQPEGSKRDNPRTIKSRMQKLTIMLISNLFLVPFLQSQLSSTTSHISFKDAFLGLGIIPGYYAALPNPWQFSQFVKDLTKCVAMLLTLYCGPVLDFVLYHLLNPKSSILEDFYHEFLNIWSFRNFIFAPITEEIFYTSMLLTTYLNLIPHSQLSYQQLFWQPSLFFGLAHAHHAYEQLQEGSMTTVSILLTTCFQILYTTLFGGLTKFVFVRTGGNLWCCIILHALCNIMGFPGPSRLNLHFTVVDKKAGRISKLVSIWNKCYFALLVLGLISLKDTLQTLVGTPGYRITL
PABP polyA inh = blocks human PABP binding to poly(A) RNA | P11940 | fluorescence polarization | inhibition, % at 35 µM | hit rate 1% among 290,000 | AID 2014;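 active = 50% or more with normal probe brightness, or confirmed in later tests; about a fifth of its hits are not listed in these tables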;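 note: calls also rest on retests at 20 µM and on dose response follow-up; controls were probe without protein and protein plus probe with vehicle; some compounds called inactive have numbers as strong as hits; many hits fall short of the cut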
UUG fidelity = yeast start codon fidelity modulation; S. cerevisiae UUG-firefly luciferase reporter, luminescence/redox ratio; activity score, % at 18.7 µM; hit rate 0.13% among 350,000; AID 602363;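 active = replicate mean at a twofold rise or more, about +100% in these data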;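 note: firefly luciferase made from a UUG start codon reports start codon fidelity; reporter light over untreated wells divided by growth signal over untreated wells; some hits fall short of that in this replicate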
eIF4H inh retest = also measured in eIF4H inh; calls as there; inhibition, %; compound at 20 µM; confirmation average;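 mean of two retest wells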
PABP polyA inh retest = also measured in PABP polyA inh; calls as there; inhibition, %; compound at 20 µM; confirmation repeats;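 mean of two retest wells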
MT1-MMP act inh RFP = also measured in MT1-MMP act inh; calls as there; RFP signal change, %; measured here: RFP expression control read;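 0 = vehicle wells; hits needed this value within 50% of zero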
An asterisk follows results filed as active; i = inactive; x = not tested or not shown; + = active, no number.

SMILES | eIF4H inh | HIV Env fusion | MT1-MMP act inh | MT1-MMP act inh RFP | CSC inhib | Rce1 inhib | PABP polyA inh | UUG fidelity | others
CN(c1ccc(C(=O)N2CCOCC2)cc1)S(=O)(=O)c1ccc(Cl)cc1 | 0.4 | -9.9 | 2.0 | 1.5 | -6.1 | i | 3.3 | -11.9
CCOC(=O)C1=C(CSc2nc(-c3ccncc3)ccc2C#N)OC(N)=C(C#N)C1c1cccnc1 (stereo unspecified) | 119.5* | x | -16.1 | 3.5 | -12.5 | i | 119.0* | -8.4
CCCn1nc(Oc2nc(N(C)C)nc(N(C)C)n2)ccc1=O | 3.2 | 8.6 | 1.6 | 3.5 | -10.2 | i | 3.8 | x
O=C(CCCCn1c(=O)[nH]c2ccsc2c1=O)NCC1CCCO1 (stereo unspecified) | -1.0 | -52.6 | 5.6 | 0.0 | 14.1 | i | 11.2 | -8.3
CCc1nnc(NS(=O)(=O)c2ccc(NC(=O)/C=C/c3ccccc3Cl)cc2)s1 | 26.1 | 4.9 | 6.5 | 5.9 | 17.1 | i | 23.7 | x
CS(=O)(=O)Nc1cccc(-c2ccc3nncn3c2)c1 | x | -21.3 | 5.4 | 6.7 | x | x | x | -36.9
COc1ccc(C)c2sc(NC(=O)C3CC3)nc12 | 0.4 | -2.1 | -1.2 | -0.8 | -8.8 | i | 3.0 | -14.6
Cc1cnc(CNC(=O)C2(C)CCCN2CC(C)C)cn1 (stereo unspecified) | x | -1.2 | -1.0 | 7.0 | x | x | x | -18.5
Cc1ccc(C(=O)Nc2ccc3c(c2)nc(CCNC(=O)c2ccco2)n3C)cc1 | -2.7 | -39.1 | -0.8 | -3.6 | -15.8 | i | 8.7 | -14.9
O=C1C=C(c2cccc(Cl)c2O)C[C@@H](c2ccc(Cl)cc2)C1 | x | -5.3 | -4.4 | -0.4 | 32.7 | x | x | -5.1
Cc1nnc(N/N=C\c2ccc(-c3cccc(C(=O)O)c3)o2)n1N | 0.3 | 18.0 | 3.9 | 2.4 | -12.6 | i | 3.0 | x
Cc1cc(C)c2c(-n3cccc3)n[nH]c2n1 | 3.4 | x | 0.0 | -4.1 | 0.0 | i | 2.1 | -4.5
CCOC(=O)C1CCCN(C(=O)c2cccc3ccccc23)C1 (stereo unspecified) | 27.1 | -6.8 | 0.2 | -3.1 | -9.0 | i | 15.3 | 8.0
O=C(COC(=O)/C=C/c1ccc([N+](=O)[O-])cc1)Nc1ccc(F)cc1 | x | x | 1.1 | -1.2 | -15.9 | x | x | -17.4
O=C(c1ccccc1)N1CCN(c2ncccn2)CC1 | -14.9 | -1.0 | -1.2 | 0.5 | -4.9 | i | -2.2 | -4.3
CNc1ccc(Oc2c(F)c(F)nc(F)c2F)cc1 | 1.6 | 0.6 | 0.4 | 4.5 | -4.8 | i | -7.6 | -11.6
COc1cc(CN2CCCN(C)CC2)c([N+](=O)[O-])cc1OC | -9.4 | -7.3 | -2.8 | 4.3 | -5.9 | i | 3.1 | -12.6
COc1cc(NC(=O)c2cc3ccccc3cc2O)c(OC)cc1Cl | 10.0 | 33.5 | -29.9 | -35.9 | 76.4* | i | 11.6 | -17.9
OC(c1ccc(F)c(F)c1)c1nc(-c2ccncc2)cs1 (stereo unspecified) | x | 8.3 | 0.3 | -18.2 | x | x | x | -15.5
O=C(COc1ncnc2cc(Cl)ccc12)c1ccccc1 | -1.4 | -11.5 | 1.4 | 1.0 | -0.5 | i | -6.3 | -7.2
CN(CC(=O)Nc1ccc(F)cc1)C(=O)CSc1nnc(Cc2ccccc2)o1 | x | 8.4 | -0.5 | -3.4 | -12.5 | x | x | 3.3
COCCNC(=O)c1ccc(NC(C)=O)cc1 | 5.1 | -19.3 | 1.1 | 4.1 | 3.4 | i | 2.7 | -24.6
COc1ccc(C2CC(c3ccco3)n3ncnc3N2)cc1 (stereo unspecified) | 2.4 | -6.7 | 1.4 | 3.5 | 0.1 | i | -12.9 | -17.5
CCOC(=O)c1c(C)nc2sc(C(=O)Nc3ccc(C(C)=O)cc3)c(N)c2c1-c1ccc(OC)cc1 | 0.7 | x | -14.7 | -13.8 | 62.9 | i | -4.3 | x
Cc1cc(NC(=O)c2cnccn2)no1 | 27.8 | x | x | x | x | i | 26.0 | x
CC(C)(CNC(=O)CNC(=O)c1ccccc1F)N1CCOCC1 | x | -7.0 | 1.1 | 0.4 | -14.5 | x | x | -19.0
COCCCNC(=O)c1cc2c(s1)CS(=O)(=O)C2 | 4.9 | x | -3.2 | 7.7 | -2.1 | i | -3.8 | 2.8
CC(=O)Nc1ccc(C(=O)OCC(=O)NCc2ccc(Cl)cc2)cc1 | 2.4 | x | x | x | 32.8 | i | -6.8 | x
N#CC1(C#N)CC(C=O)=C(N)C1(C#N)CC(=O)C12CC3CC(CC(C3)C1)C2 (stereo unspecified) | 48.1 | 39.4 | -27.9 | 0.2 | 7.9 | i | 18.8 | x
CC1(C)CC(=O)c2c(noc2-c2ccccc2)C1 | -7.1 | -156.8 | 0.7 | 2.7 | 48.3 | i | 1.8 | 34.8
COc1ccc(NC(=O)CSCC(=O)Nc2ccc(S(=O)(=O)N3CCCC3)cc2)cc1 | 4.3 | -6.9 | -2.8 | 2.3 | x | i | 11.0 | -18.7
CN1CCC(=O)N([C@H](CSc2ccc(Br)cc2)c2ccccc2)CC1 | -3.7 | -28.9 | 1.5 | 0.6 | 1.7 | i | -17.6 | -26.1
C=C(C)[C@@H]1CC=C(CO)CC1 | x | -20.0 | 3.0 | 2.5 | x | x | x | -17.4
Cc1ccccc1Nc1nc(N)nc(-c2oc3ccccc3c2C)n1 | -9.8 | -35.1 | -7.3 | -3.5 | 19.1 | i | -4.5 | 2.7
C=CCNC(=S)N(Cc1ccccc1)Cc1ccccc1 | -6.9 | 20.2 | -3.6 | -5.6 | 4.9 | i | -8.4 | x
CC(=O)C1=C(C)Nc2ncnn2C1c1ccccc1Cl (stereo unspecified) | -0.3 | x | -0.5 | 1.2 | 6.0 | i | 3.3 | -15.1

Compounds from the list above that contain a nitro group on carbon:
SMILES | eIF4H inh | HIV Env fusion | MT1-MMP act inh | MT1-MMP act inh RFP | CSC inhib | Rce1 inhib | PABP polyA inh | UUG fidelity | others
O=C(COC(=O)/C=C/c1ccc([N+](=O)[O-])cc1)Nc1ccc(F)cc1 | x | x | 1.1 | -1.2 | -15.9 | x | x | -17.4
COc1cc(CN2CCCN(C)CC2)c([N+](=O)[O-])cc1OC | -9.4 | -7.3 | -2.8 | 4.3 | -5.9 | i | 3.1 | -12.6

Returning to the listing, repeating the four entries before the break.
SMILES | eIF4H inh | HIV Env fusion | MT1-MMP act inh | MT1-MMP act inh RFP | CSC inhib | Rce1 inhib | PABP polyA inh | UUG fidelity | others
C=C(C)[C@@H]1CC=C(CO)CC1 | x | -20.0 | 3.0 | 2.5 | x | x | x | -17.4
Cc1ccccc1Nc1nc(N)nc(-c2oc3ccccc3c2C)n1 | -9.8 | -35.1 | -7.3 | -3.5 | 19.1 | i | -4.5 | 2.7
C=CCNC(=S)N(Cc1ccccc1)Cc1ccccc1 | -6.9 | 20.2 | -3.6 | -5.6 | 4.9 | i | -8.4 | x
CC(=O)C1=C(C)Nc2ncnn2C1c1ccccc1Cl (stereo unspecified) | -0.3 | x | -0.5 | 1.2 | 6.0 | i | 3.3 | -15.1
CN(C)S(=O)(=O)c1ccc(NC(=O)/C=C/c2ccccc2Cl)cc1 | 9.4 | -34.7 | -3.6 | -8.1 | -1.5 | + | -3.2 | x
O=C(CC1C(=O)NCCN1Cc1cccc(F)c1)NC1CCC1 (stereo unspecified) | 7.4 | -0.7 | 1.9 | 3.2 | -1.6 | i | 10.7 | -3.7
CSc1ccc(CN2CCC2(C)C(=O)NCc2cccc(C(F)(F)F)c2)cc1 (stereo unspecified) | x | 27.4 | 7.3 | -11.3 | x | x | x | 11.4
Clc1ccccc1Cc1noc(CN2CCCCC2CCc2ccccn2)n1 (stereo unspecified) | -10.3 | 3.1 | -4.4 | -0.5 | -5.0 | i | -3.9 | x
CCOc1ccc(S(=O)(=O)N2CCN=C2Cc2ccccc2)cc1C | -4.4 | 19.0 | 5.7 | -1.7 | x | i | 9.1 | 7.2
Cc1ccc(-n2nc(C)c(C(=O)Nc3cccc(C(=O)NC4CC4)c3)n2)c(C)c1 | x | x | 0.5 | -4.5 | 1.3 | x | x | -19.3
CC(=O)Nc1cccc(NC(=O)c2ccco2)c1 | 0.4 | -117.2 | -3.8 | 4.6 | -8.1 | i | 5.3 | -28.1
COc1ccc2cc(S(=O)(=O)N3CCOCC3)ccc2c1 | -6.4 | -11.2 | -0.8 | -3.4 | 10.5 | i | -0.2 | -1.9
O=S(=O)(NCc1ccc2c(c1)OCO2)c1cccc(F)c1 | 6.5 | 4.4 | -2.2 | -2.2 | x | i | 1.7 | -17.6
CC(C(=O)O)n1nnc2ccccc21 (stereo unspecified) | -10.0 | -3.4 | 0.9 | 0.5 | -15.0 | i | 6.7 | -20.4
CCOC(=O)c1nn(-c2ccc(F)cc2)c(=O)cc1OCC(=O)Nc1cccc(C)c1 | x | 5.4 | 5.9 | -1.4 | 4.0 | i | x | -15.0
COC(=O)N/N=C/c1cn(Cc2ccccc2Cl)c2ccccc12 | 0.7 | 22.2 | -2.5 | -7.7 | 12.6 | + | -5.4 | x
CCc1ccc(OCC(=O)Nc2ccc(-c3nc4ccccc4o3)c(O)c2)cc1 | -25.9 | x | 6.0 | -0.8 | 8.7 | i | -13.9 | x
O=S(=O)(NCCCCCNS(=O)(=O)c1c(F)cccc1F)c1ccc2c(c1)OCCO2 | x | 14.6 | 1.0 | -1.7 | 11.9 | x | x | 11.6
CCC(c1nnnn1Cc1ccco1)N(Cc1cc2cc(C)cc(C)c2[nH]c1=O)CC1CCCO1 (stereo unspecified) | 20.0* | x | -20.5 | 7.3 | 0.5 | i | 56.2 | -1.3 | eIF4H inh retest=77.0*;PABP polyA inh retest=20.7
CCCc1nc2ccccc2[nH]1 | 41.9 | -120.2 | -7.8 | -0.9 | -7.0 | i | 0.6 | -17.8
Cc1cc(C(=O)N2CCc3ccccc3C2)on1 | -14.8 | -20.4 | 0.8 | 2.3 | -0.3 | i | -1.6 | -12.5
COc1cc2cc(CN(Cc3cccs3)C(=S)Nc3ccccc3)c(=O)[nH]c2cc1OC | 23.6 | -5.1 | -14.6 | -17.4 | 33.9 | i | 6.6 | -1.4
CCc1ccc(-c2nc(CCl)cs2)cc1 | -15.5 | -27.4 | 1.0 | -2.0 | x | i | 7.1 | x
O=C(COC(=O)c1cc(S(=O)(=O)N2CCCCC2)ccc1N1CCOCC1)NC1CCS(=O)(=O)C1 (stereo unspecified) | -0.7 | -2.8 | 0.4 | 0.2 | 2.9 | i | 13.6 | -6.2
Cc1ccsc1C(=O)Nc1nccs1 | 6.3 | -16.0 | -9.3 | -0.2 | -0.5 | i | 6.4 | -27.4
CCN(CC)S(=O)(=O)c1cccc(C(=O)OCc2cc(=O)n3nc(C)sc3n2)c1 | -9.6 | 21.1 | -4.8 | -9.0 | -17.0 | i | -3.6 | 19.9
CC1CCCCN1CCCNC(=O)C1CCCN(c2ncnc3c2nc2n3CCCCC2)C1 (stereo unspecified) | 2.9 | -1.5 | -2.4 | 0.1 | -10.9 | i | -4.7 | -10.0

Random draw from the library (roughly 2.9% active in at least one column).
